High-throughput results deposited in PubChem BioAssay by several laboratories.
GALR2 agonist: GALR2 (human) receptor agonism | GALR2-expressing cells, agonist activation read-out | activation, %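 (tested at 5 µM)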 | 140,000 compounds, 0.48% hits | AID 803;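 active means above mean plus 3 SD of all compounds, about 5% in these data, not always enough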;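 further: 0% = vehicle buffer wells and 100% = reference agonist at full effect; tested in CHO reporter cells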
Target sequence (O43603 whole entry, looked up): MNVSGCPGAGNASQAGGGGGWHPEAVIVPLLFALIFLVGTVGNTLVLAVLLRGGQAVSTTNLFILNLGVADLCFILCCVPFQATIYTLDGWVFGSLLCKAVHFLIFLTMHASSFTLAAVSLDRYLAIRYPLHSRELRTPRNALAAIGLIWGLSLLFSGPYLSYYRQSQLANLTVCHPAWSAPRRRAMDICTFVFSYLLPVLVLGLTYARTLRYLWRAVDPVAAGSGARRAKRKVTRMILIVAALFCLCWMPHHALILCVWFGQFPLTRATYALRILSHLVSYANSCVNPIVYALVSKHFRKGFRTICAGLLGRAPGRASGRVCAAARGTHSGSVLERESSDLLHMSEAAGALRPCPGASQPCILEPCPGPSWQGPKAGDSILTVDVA
PKD1 kinase inh: inhibitors of human PKD1 kinase; PKD1 kinase fluorescence polarization assay; inhibition, %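 (about 10 µM by stock and volumes)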; 200,000 compounds, 0.056% hits; AID 797;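 active means inhibition of 50% or more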;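 further: controls were vehicle for no effect and a reference inhibitor for full effect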
HSV augment: HSV replication enhancement. AID 1956. 220,000 compounds, 0.005% hits. maximum fold increase. HSV replication augmentation in cells, fold increase;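 active means peak rise of 1.5-fold or more in the series; inconclusive means self-fluorescent or not available for retest; tested in PC3 cells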;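 further: first round at 10 µM; read as green reporter fluorescence; hits show the peak of a series up to 25 µM; 1 = signal of infected wells without compound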
Insulin prom inh: TRM-6 insulin promoter activity inhibition; inhibition, % at 2 µM; TRM-6 cells (human fetal islet line), insulin promoter-eGFP reporter, imaging; reporter expression induced with tamoxifen; AID 1273; 130,000 compounds, 0.9% hits;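 active means inhibition above the mean plus 3 SD, with well images judged a real hit on visual review, cut at about 60% in these data, passing the limit was not always enough; inconclusive means inhibition over the cutoff but images rejected on review; inactive means inhibition not above the cutoff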
RGS16-Gao HTS: RGS16-Galphao interaction regulator (human); O15492+P09471; bead-based flow cytometry RGS16-Galphao binding, fluorescence; actives lie on both sides; binding response (% of control), % at 10 µM; 220,000 compounds, 0.38% hits;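 active means below 25% or above 175%, edge rows of some plates excepted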;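 further: Galphao activated by GDP with aluminum fluoride before binding; 100% = wells without compound and 0% = beads without RGS; some results beyond the cut were filed as inactive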
Target sequence (O15492 whole entry, looked up): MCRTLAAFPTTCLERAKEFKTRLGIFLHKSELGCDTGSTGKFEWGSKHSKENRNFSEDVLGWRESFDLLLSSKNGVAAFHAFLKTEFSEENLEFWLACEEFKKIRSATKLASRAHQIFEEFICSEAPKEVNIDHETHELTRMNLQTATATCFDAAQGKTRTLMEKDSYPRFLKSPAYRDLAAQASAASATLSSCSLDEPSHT
Target sequence (P09471 whole entry, looked up): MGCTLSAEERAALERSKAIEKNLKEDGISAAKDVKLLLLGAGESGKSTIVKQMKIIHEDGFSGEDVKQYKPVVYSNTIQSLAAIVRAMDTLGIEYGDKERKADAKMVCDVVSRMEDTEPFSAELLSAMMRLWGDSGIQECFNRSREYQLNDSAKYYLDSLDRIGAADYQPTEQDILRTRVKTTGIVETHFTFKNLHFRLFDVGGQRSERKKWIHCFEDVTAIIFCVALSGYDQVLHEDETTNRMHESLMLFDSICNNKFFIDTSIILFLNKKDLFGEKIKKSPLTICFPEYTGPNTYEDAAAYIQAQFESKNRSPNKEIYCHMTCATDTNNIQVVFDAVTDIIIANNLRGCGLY
Insulin prom inh cell count: recorded beside Insulin prom inh, whose call it bears; normalized cell count, %; measured here: cell count, toxicity; reference of the scale not given here;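 cells exposed to compound for 48 h; stained nuclei by imaging scaled within each plate; lower means fewer cells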
HSV augment primary fold: further read-out of HSV augment, marked with its call; fold increase; compound at 10 µM; measured here: primary screen fold increase 10 uM; tested in PC3 cells;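 GFP signal in the first replicate; 1 = infected wells without compound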
Active calls of the source: *; i = inactive; u = inconclusive; x = not tested or not shown.

Every second line gives: GALR2 agonist	PKD1 kinase inh	HSV augment	HSV augment primary fold	Insulin prom inh	Insulin prom inh cell count	RGS16-Gao HTS
O=C(NCc1ccccc1)C(C(=O)c1ccc(F)cc1)n1ccccc1=O (configuration not stated)
    -1.3	-11	i	1.1	29	119	118
O=C(N/N=C/c1ccccc1OC(F)F)c1cc(-c2ccncc2)nc2ccccc12
    x	-3	i	0.77	x	x	98
Cc1ccc(NC(=S)NCc2ccc(S(N)(=O)=O)cc2)cc1Cl
    x	-6	i	0.96	x	x	102
COc1ccc(C(=O)Cc2cc(OC)c(OC)cc2[N+](=O)[O-])cc1
    -2.1	-5	i	0.9	x	x	101
COc1ccccc1NC(=O)C12CC3CC(C1)CC(c1ccc(C)cc1)(C3)C2
    -1.5	6	i	0.83	17	133	99
CC12CCC(C(=O)NC(c3ccccc3)c3ccccc3)(OC1=O)C2(C)C (configuration not stated)
    -3.6	7	i	1.1	13	57	92
CCOc1ccccc1CNc1nc2nc3c(c(=O)n2[nH]1)CCC3
    -2.5	5	i	0.85	1	47	95
COc1ccc(C(=O)NCc2ccc(C)cc2)cc1S(=O)(=O)N1CCCc2ccccc21
    -2.0	-7	i	0.94	0	110	102
O=C(c1ccc(C(=O)N2CCOCC2)s1)N1CCOCC1
    -0.2	3	x	x	-7	108	103
CC(C)CCN1CCN(Cc2ccc(Oc3ncccn3)cc2)CC1CCO (configuration not stated)
    x	-7	i	0.91	x	x	113
Cc1ccccc1Cn1nnc2c1C(=O)c1ccccc1C2=O
    -1.6	-1	i	0.56	-44	121	108
O=C(c1ccc(COCC(F)(F)F)cc1)N1CCN(c2ccccn2)CC1
    x	2	i	0.9	-12	109	102
OCC1(CCOc2ccccc2)CCN(Cc2cn[nH]c2-c2ccccc2)CC1
    x	0	i	0.81	13	216	102
CC(C)(C)c1[nH]nc2c1C(c1ccncc1)C(C#N)=C(N)O2 (configuration not stated)
    -2.1	-1	i	0.99	26	153	100
Nc1c(NCc2ccccc2F)c(=O)[nH]c(=O)n1Cc1ccccc1
    -0.1	-4	i	0.84	-6	109	102
O=C1CC(c2ccc(S(=O)(=O)NCCOc3ccccc3)cc2)CN1 (configuration not stated)
    -1.1	0	i	0.93	-117	84	x
Cc1ccc(-c2csc(N=C(N)N)n2)cc1
    x	x	i	0.86	x	x	98
Cn1c(SCC(=O)Nc2cccc3ccccc23)nc(O)cc1=O
    0.8	-8	i	0.86	62	79	81
N#Cc1c(N)n(-c2ccc(C(=O)O)cc2)c2nc3ccccc3nc12
    x	x	u	x	x	x	104
O=C(CSc1nnc(SCc2ccccc2)s1)N/N=C/c1c(Cl)cccc1Cl
    -1.5	5	i	0.86	0	129	106
Cc1nn(-c2ccccc2)c(Cl)c1C(=O)NCC(=O)O
    -2.8	1	i	1	5	68	94
Cc1ccc(NC(=O)CC2S/C(=N/N=C/C=C/c3ccccc3)NC2=O)cc1Cl (configuration not stated)
    -0.3	5	i	0.84	x	x	101
CCOC(=O)Cn1c(=O)sc2ccccc21
    -2.2	8	i	1	0	80	101
Cn1c(/N=C/c2c(O)ccc3ccccc23)nc2ccccc21
    -1.6	-2	x	x	x	x	107
COc1ccc(C2C(C#N)=C(N)Nc3nc4ccccc4n32)cc1 (configuration not stated)
    -0.9	-8	i	1	33	111	106
O=C(COC(=O)c1c(F)cccc1F)Nc1ccc2[nH]c(=O)[nH]c2c1
    x	-2	i	0.86	-20	126	100
Cc1ccc(N2C(=O)C3N=NN(CC(=O)N4N=C(c5cccc6ccccc56)CC4c4ccccc4)C3C2=O)cc1 (configuration not stated)
    -0.3	-8	i	0.94	x	x	105
CCN1C(=O)/C(=C/N(C)C)c2ccccc21
    0.8	1	i	1.1	57	75	97
O=C(CNC(=O)C1CCCCC1)Nc1ccccc1
    -0.1	0	i	1.1	-13	134	104
OC(COC(c1ccccc1)c1ccccc1)CN1CCCCC1 (configuration not stated)
    -0.5	-1	i	0.65	-50	99	109

Reformatted as labelled records: four of the compounds above.
Cc1ccc(-c2csc(N=C(N)N)n2)cc1
- GALR2 agonist = x
- PKD1 kinase inh = x
- HSV augment = i
- HSV augment primary fold = 0.86
- Insulin prom inh = x
- Insulin prom inh cell count = x
- RGS16-Gao HTS = 98
Cn1c(SCC(=O)Nc2cccc3ccccc23)nc(O)cc1=O
- GALR2 agonist = 0.8
- PKD1 kinase inh = -8
- HSV augment = i
- HSV augment primary fold = 0.86
- Insulin prom inh = 62
- Insulin prom inh cell count = 79
- RGS16-Gao HTS = 81
N#Cc1c(N)n(-c2ccc(C(=O)O)cc2)c2nc3ccccc3nc12
- GALR2 agonist = x
- PKD1 kinase inh = x
- HSV augment = u
- HSV augment primary fold = x
- Insulin prom inh = x
- Insulin prom inh cell count = x
- RGS16-Gao HTS = 104
O=C(CSc1nnc(SCc2ccccc2)s1)N/N=C/c1c(Cl)cccc1Cl
- GALR2 agonist = -1.5
- PKD1 kinase inh = 5
- HSV augment = i
- HSV augment primary fold = 0.86
- Insulin prom inh = 0
- Insulin prom inh cell count = 129
- RGS16-Gao HTS = 106

(next part)
Every second line gives: GALR2 agonist	PKD1 kinase inh	HSV augment	HSV augment primary fold	Insulin prom inh	Insulin prom inh cell count	RGS16-Gao HTS
CCOC(=O)C1CSC(CC(=O)Nc2ccc(Cl)c(Cl)c2)C(=O)N1 (configuration not stated)
    -0.6	10	i	0.8	-18	112	100
CCN1C(=O)/C(=C/C=C2/SCCN2C)SC1=S
    -2.9	-4	u	x	x	x	91
CCOc1ccc(NC(=O)CSc2nnc(Cc3cccn3C)n2-c2ccc(OC)cc2)cc1
    -1.0	0	i	0.9	-30	122	98
CC(C)CNC(=S)N1CCN(Cc2ccc3c(c2)OCO3)CC1
    x	-5	i	1	-51	196	104
O=C(NCc1cccnc1)C1c2ccccc2C(=O)N1C1CCCC1 (configuration not stated)
    -0.1	-8	i	0.93	x	x	110
Cc1cccc(NC(=O)CSC2=NN3CCCC(=O)N=C3S2)c1C
    x	-6	x	x	x	x	105
O=C(/C=C/c1ccco1)Nc1cc(Cl)ccc1C(=O)O
    12*	-6	i	1.1	-12	164	99
CCOC(=O)C1=C(C)N=C2SCCC(=O)N2C1c1cccs1 (configuration not stated)
    -2.9	3	i	1.3	x	x	100
COc1ccc(OC)c(C(O)c2coc3ccc(O)c(CN(C)C)c23)c1 (configuration not stated)
    -0.9	-3	i	0.83	-61	139	108
Cc1ncsc1C(=O)NCc1ccc(N2CCCC2=O)cc1
    -1.2	0	i	0.77	x	x	104
CC(=O)CC1(OC(C)=O)C(=O)N(C)c2ccccc21 (configuration not stated)
    x	-5	i	0.89	x	x	98
NC(=O)CN(c1ccc(Cl)cc1)S(=O)(=O)c1ccccc1
    -1.6	5	i	0.92	0	109	100
CCSc1ncccc1C(=O)N[C@@H](CCSC)C(=O)OC
    x	x	i	0.92	x	x	110
O=C(O)c1ccc(CSc2nnc(-c3ccco3)n2-c2ccccc2)cc1
    x	-4	i	0.9	x	x	97
COc1ccc(NC(C#N)c2ccc(OC)cc2)cc1 (configuration not stated)
    0.0	10	i	0.81	0	109	97
Clc1ccccc1-c1nnc2sc(-c3cccs3)nn12
    -2.4	-15	i	0.7	0	103	104
O=C1CCCc2c1[nH]c1ccccc21
    -0.8	4	i	0.92	-43	96	102
Cc1ccn2cc(CCNS(=O)(=O)c3ccc4c(c3)OCCO4)nc2c1
    -1.3	-7	i	1	x	x	104
Cc1ccc(Oc2nnc(-c3ccc(C)cc3)c3ccccc23)cc1
    0.5	3	i	1	-11	75	76
O=[N+]([O-])c1ccc(N2CCOCC2)cc1O
    x	x	i	1.2	x	x	102
Cc1ccc(C(c2nnnn2C2CCCCC2)N2CCN3CCCC3C2)cc1 (configuration not stated)
    -3.4	-7	i	0.9	-14	172	102
Cc1ccsc1C=C1C(=O)c2ccccc2C1=O
    -1.9	-12	i	0.95	-312	129	104
CN(C)c1ccc(/C=C2\C(=O)N(c3ccc([N+](=O)[O-])cc3)N=C2N2CCOCC2)cc1
    -2.2	0	x	x	-12	111	x
COC(=O)c1[nH]c2ccccc2c1NC(=O)CN1CCN(Cc2ccc3c(c2)OCO3)CC1
    0.2	-1	i	0.94	-27	134	100
Cc1ccc(S(=O)(=O)N(C)Cc2ccc(-c3nnc4n3CCC4)cc2)cc1
    -1.0	-13	i	1	-3	88	98
CC(CC(=O)Nc1ncc([N+](=O)[O-])s1)c1ccccc1 (configuration not stated)
    x	0	i	0.97	-5	116	112
Cc1nc2scc(-c3ccccc3)c2c(=O)n1/N=C/c1ccco1
    -0.9	0	i	0.88	-32	96	104
CCOc1cc(CNc2ccc(S(N)(=O)=O)cc2)ccc1OCC(=O)NC(C)(C)C
    x	-1	i	1.1	x	x	100
COc1ccccc1CNC(=O)CSc1ccc(Br)cc1
    -0.3	4	i	1	-16	139	117
O=C(Oc1ccc(Br)cc1C(=O)/C=C/c1ccccc1F)c1ccco1
    0.0	-5	x	x	0	124	x
N#Cc1cccc(Nc2c3c(nc4ccccc24)CCCC3)c1
    x	1	i	1.1	44	118	100
Cc1ccccc1NC(=O)OCc1cn(-c2ccc(Cl)cc2)nn1
    0.4	1	i	0.84	x	x	102
CCCCc1ccc(NC2=NCC(=O)N2CCc2ccccc2)cc1
    x	-7	i	0.86	x	x	103
O=S(=O)(Nc1cc(Cl)ccc1N1CCCCC1)c1cccs1
    -2.4	4	i	1.2	x	x	97
COc1ccc(C)cc1NC(=O)CSc1nnc(COc2ccc(Cl)cc2)n1Cc1ccco1
    -1.2	0	i	0.74	-142	110	110
COc1cc(C(=O)NCC(=O)OC(C)C(=O)Nc2ncc(Cl)cc2Cl)cc(OC)c1OC (configuration not stated)
    x	-4	i	0.95	x	x	96
CCOC(=O)c1c(C)[nH]c(C(=O)N/N=C\c2ccccc2Cl)c1C
    -2.5	2	i	0.83	x	x	105
COC(=O)c1ccc(COC(=O)C23CC4CC(CC(O)(C4)C2)C3)o1
    1.6	-4	i	0.86	x	x	102
COc1ccc(C(=O)Cc2ccc(OC)c(OC)c2)c(OC)c1
    -0.2	-9	i	0.9	57	123	103
CCN(CC)CCCNc1ncnc2ccccc12
    x	-7	i	0.95	x	x	102
Cc1nonc1OCC(C)(COc1nonc1C)NC(=O)c1ccc(Cl)cc1
    -3.2	-5	i	0.82	-56	116	107
COc1ccc(C(=O)n2ccc(C)n2)cc1Br
    -0.7	2	x	x	-31	127	101
O=C(O)C1CCN(c2ccc(S(=O)(=O)N3CCOCC3)cc2[N+](=O)[O-])CC1
    x	-13	i	1.1	9	140	103
O=c1[nH]cnc2c1ncn2[C@@H]1O[C@H](CO)[C@@H](O)[C@H]1O
    -1.2	-4	i	0.9	-10	56	122
COC(=O)c1cnn2c(C(F)(F)F)cc(-c3ccccc3)nc12
    -1.2	-9	i	0.97	-500	62	106
CCOC(=O)CNC(=O)CNC(=O)Cn1ccc2ccccc2c1=O
    -1.7	-5	i	0.91	21	109	92
O=C(NCc1cccs1)C1CC(c2ccc(Cl)c(Cl)c2)=NO1 (configuration not stated)
    x	-5	i	0.96	-31	54	101
CO/N=C/C(C#N)=C/c1ccc(OC)c(OC)c1
    x	-4	i	0.93	45	144	106
CCCCCCc1cc2cc(C(=O)NC)c(=N)oc2cc1O
    4.0	1	u	x	-45	74	92
COc1ccc(-c2nc3cc(NC(=O)Cc4ccc(OC)c(OC)c4)ccc3o2)cc1
    -0.3	0	i	0.8	6	127	102
Cc1ccc(S(=O)(=O)N2CCC(=O)N(CCOCc3ccccc3)CC2)cc1
    -1.2	8	i	0.73	-27	75	95
CCOc1ccc(NC(=S)Nc2ccc3nsnc3c2)cc1
    0.3	-5	i	1.1	-32	144	99
COC(=O)c1cc(=O)n2c(sc3ccccc32)c1C#N
    x	x	i	1.1	x	x	102
CCOC(=O)c1c(C)[nH]c(C)c1C(=O)COC(=O)CNC(=O)C1CCCCC1
    x	-3	i	0.94	14	67	104
C/C(=N\NC(=O)c1ccccc1O)c1cccs1
    x	-7	i	0.95	x	x	105
COc1ccc2c(c1)CCc1c(C(=O)Nc3cc(C)n(Cc4ccc(Cl)cc4)n3)noc1-2
    -1.0	4	i	0.59	x	x	103
COc1ccccc1Nc1nccc(N(C)C)c1C#N
    x	-1	i	0.91	x	x	100
O=C(NC(=S)Nc1ccccc1N1CCCCC1)c1cccs1
    0.9	-11	i	1	-27	134	108

The order is random; 1.3% or so of the library scored in one or more.
